CtBP-E1A inh = CtBP/E1A binding inhibition | AlphaScreen GST-E1A/His-CtBP binding, 1536-well; active compounds read low; control for the full effect not named in the record | activity change, % (concentration not given with the values) | actives 0.49% (n = 340,000) | AID 651724; in the data active means activity change below about -65%; inconclusive means about -30% to -65%; inactive means above about -30%; note: % is set by controls: 0 for no effect and ±100 for the full control effect
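Steps: dispense buffer (Tris pH 8.0, NaCl 300 mM, TCEP 1 mM, BSA, Tween 20); add 5X protein mix (GST-E1A, His-CtBP, 125 nM each); pin 23 nL compound; 2 h at 37 °C, dark; add 5X beads (50 ug/mL); 1 h; read.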
TRPV1 PAM = enhances activation of the human vanilloid receptor TRPV1; Q8NER1; TRPV1-expressing cells, Fluo-8 calcium influx, capsaicin EC20 potentiation; host cell line not named in the record; control for the full effect not named in the record; potentiation, % at 8.33 µM; actives 0.02% (n = 320,000); active means potentiation above 80%; inconclusive means 30% to 80%; inactive means below 30%; note: 0% is about no effect
Target sequence (Q8NER1 whole entry, looked up): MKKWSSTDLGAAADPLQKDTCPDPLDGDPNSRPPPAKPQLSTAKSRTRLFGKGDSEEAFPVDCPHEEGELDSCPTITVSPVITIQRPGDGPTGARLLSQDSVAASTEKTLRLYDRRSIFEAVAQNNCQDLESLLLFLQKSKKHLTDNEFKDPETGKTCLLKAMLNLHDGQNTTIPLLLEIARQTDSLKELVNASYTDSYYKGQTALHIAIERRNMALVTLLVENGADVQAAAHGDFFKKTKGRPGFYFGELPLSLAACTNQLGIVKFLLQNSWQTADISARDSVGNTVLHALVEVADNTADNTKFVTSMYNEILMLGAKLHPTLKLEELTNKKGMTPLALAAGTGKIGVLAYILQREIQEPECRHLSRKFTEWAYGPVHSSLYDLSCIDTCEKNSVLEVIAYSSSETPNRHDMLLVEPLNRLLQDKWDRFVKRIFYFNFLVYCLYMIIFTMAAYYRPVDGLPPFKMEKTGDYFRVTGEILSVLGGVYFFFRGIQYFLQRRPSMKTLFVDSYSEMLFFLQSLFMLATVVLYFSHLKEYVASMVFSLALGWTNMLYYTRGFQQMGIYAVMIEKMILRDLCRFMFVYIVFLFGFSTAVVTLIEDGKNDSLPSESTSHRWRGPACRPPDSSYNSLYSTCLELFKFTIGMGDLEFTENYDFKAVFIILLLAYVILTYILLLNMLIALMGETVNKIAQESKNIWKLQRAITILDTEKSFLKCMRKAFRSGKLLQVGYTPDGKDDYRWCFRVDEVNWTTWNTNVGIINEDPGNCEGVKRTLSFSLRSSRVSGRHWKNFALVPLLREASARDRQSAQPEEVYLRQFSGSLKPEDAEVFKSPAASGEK
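TRPV1-expressing cells were cultured overnight at 35.5C and loaded with Fluo-8 calcium dye for 40 to 90 min at room temperature. After a 10 s baseline, compound was added and calcium influx was read kinetically for 3 min (ex 480/em 520 nm).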
gsp ag = gsp mutant agonism. gsp mutant cells, cAMP HTRF, 30 min; control for the full effect not named in the record. AID 624287. Potency, µM (highest dose often 76.9 µM), without a hit: top-dose activation (cAMP increase), actives largely listed as activators. actives 0.13% (n = 340,000); active = well fitted activation curve with a large enough effect; inconclusive = small, poorly fitted or top-dose-only effect, or another doubt; inactive = no such curve, though single readings can be large or run the other way; cell line not stated here;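 note: phosphodiesterase inhibitor Ro 20-1724 added with compounds to block cAMP breakdown; potency is the fitted concentration of half-maximal effect; nearly all actives have a fitted effect of over 60% in size; about a fifth of the inactives were tested at one dose only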
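Cells stably selected in G418 were plated at 2000/well, grown 16-24 hr, then given compounds in DMSO with the PDE inhibitor […] (300 uM solution added) for 30 min at 37C; cAMP was read by HTRF.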
ClpP mod = qHTS Assay for Activators of ClpP; ATP-dependent Clp protease proteolytic subunit (Bacillus subtilis (strain 168)), P80244; purified B. subtilis ClpP, FRET peptide cleavage, 20 min; Potency, µM (series often up to 57.5 µM), inactives show top-dose activity change, negative = active; actives 1.9% (n = 340,000); AID 651965, 2013; active = well fitted falling curve with a large enough effect; inconclusive = small, poorly fitted or top-dose-only effect; inactive = no such curve, though single readings can be large or run the other way; note: potency is the fitted concentration of half-maximal effect; the source files actives as falling curves though it sought activators and does not explain the sign; nearly all actives have a fitted effect of over 65% in size; many hits overshoot -100%
Target sequence (P80244 whole entry, looked up): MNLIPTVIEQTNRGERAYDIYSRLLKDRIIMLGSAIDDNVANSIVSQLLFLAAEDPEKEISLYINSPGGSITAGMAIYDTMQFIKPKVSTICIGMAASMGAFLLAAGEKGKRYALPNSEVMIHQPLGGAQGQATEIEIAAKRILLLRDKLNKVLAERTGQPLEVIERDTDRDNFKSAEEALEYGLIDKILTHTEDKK
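FRET quenching reversal measured ClpP activation: 10 microg/mL B. subtilis ClpP at pH 8 with the FRET-FV decapeptide, read at 430 nm after 320 nm excitation. The 20-min minus 0-min signal was scaled between DMSO/no-enzyme wells and ADEP (5.8 microM final).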
gsp antagonist = gsp mutant antagonism | gsp-mutant cells, cAMP HTRF, 30 min; control for the full effect not named in the record | Potency, µM (doses to about 76.9 µM), for inactives: at the highest dose activity change, negative = inhibition, actives largely listed as inhibitors | actives 0.4% (n = 340,000) | AID 624288; active = falling curve of any shape with a large fitted effect; inconclusive = falling curve, mostly with a smaller effect; inactive = flat or rising curve; cell line not stated here;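 note: intracellular cAMP measured with PDE inhibitor Ro 20-1724 present during compound exposure; potency is the fitted concentration of half-maximal effect; % is set by controls: 0 for no effect and ±100 for the full control effect; nearly all actives have a fitted effect of over 65% in size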
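Cells in G418 medium, seeded 16-24 h, 37C; buffer exchange to DPBS + 1 mM CaCl2, 0.5 mM MgCl2, 0.05% BSA; cpds in DMSO + […] (300 uM stock), 30 min 37C; HTRF cAMP detection.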
Sfp inh = blocks B. subtilis Sfp PPTase activity; actives 3.5% (n = 310,000); Biochemical Sfp PPTase activity, qHTS; Potency, µM, for inactives: max response, negative = inhibition, most hits filed as inhibitors; active = well fitted inhibition curve with a large enough effect; inconclusive = small, poorly fitted or top-dose-only effect, or another doubt; inactive = no such curve, though single readings can be large or run the other way;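 note: the enzyme is Sfp with the accession as filed and its product quenches rhodamine fluorescence; potency is the fitted concentration of half-maximal effect; 0% = enzyme reaction without inhibitor and -100% = no enzyme wells; top concentration of the series not given in the record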
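With Hepes-Na pH 7.6 buffer containing 10 mM MgCl2, Sfp (15 nM) modified BHQ-2-YbbR (12.5 uM) using rhodamine-CoA (5 uM). Two reads 30 minutes apart at 525/598 nm yielded each well's rate.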
Menin MLL FP FL = inhibitors of human menin-MLL interaction, wild-type MLL peptide | AID 1766 | Fluorescence polarization, fluorescein-MLL peptide displacement from menin | FP activity change, % at 61.4 µM | 290,000 tested, under 10 active; inconclusive = falling polarisation curve, or a change in total fluorescence; inactive = total fluorescence flat and polarisation flat or rising; no compound was filed as active; the % refers to the polarisation; negative = inhibition;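 note: % of control where 0% means no effect; inhibitors lower the polarisation; unlabelled MLL peptide was the positive control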
Starred values were filed as active, the others as inactive; ? = inconclusive; . = not tested or not shown; [ ] = another dose, or the depositor's remark.

mol	CtBP-E1A inh	Menin MLL FP FL	gsp ag	gsp antagonist	TRPV1 PAM	ClpP mod	Sfp inh
Cc1cc2cc(CN(Cc3cccs3)C(=S)NCC3CCCO3)c(=O)[nH]c2cc1C (stereo not given)	-6.0	1.3	-17.2%	13.4%	6.3	-25.0%	0.7%
O=C(C(NS(=O)(=O)c1cccc2nsnc12)c1ccccc1)N1CCN(c2ccccc2)CC1 (stereo not given)	-19.1	-1.5	-12.1%	-15.2%	-7.3	0.7%	-10.3%
COc1ccc(S(=O)(=O)N(CC(=O)NCCCN(C)C)c2ccc(C)cc2)cc1OC	-2.9	1.7	14.0%	10.1%	9.6	-1.6%	12.0%
C=CCNC(=O)C1CC(=O)N(c2ccc(OCc3ccc(F)cc3)cc2)C1 (stereo not given)	0.6	-8.1	7.6%	-8.2%	3.2	0.0%	4.3%
CC(C)c1ccc2c(c1)C(=O)NC(C)(C)C2	5.3	-0.9	-44.4%[inhibitor]	1.5%	.	-0.7%	11.8%
OC1(C(F)(F)F)CC(c2ccc3ccccc3c2)=NO1 (stereo not given)	3.9	4.5	-2.4%[15.4 µM]	5.8%	-8.4	-3.7%	21.5%
Cc1cc(NC(=O)CSc2cn(C)c3ccccc23)no1	-8.0	-0.9	?	-11.6%	11.5	0.2%	3.5%
C#CCOCCOCCOCCNc1nc(N2CCN(C(=O)[C@H]([C@@H](C)CC)n3cc([C@@H](N)CC(C)C)nn3)CC2)nc(N2CCN(C(=O)[C@H](Cc3cc4ccccc4[nH]3)n3cc([C@@H](N)Cc4ccc(O)cc4)nn3)CC2)n1	-17.4	14.4	.	10.0%	5.9	?	?
COc1ccc(-c2cc3nc(C4CCN(C(=O)OC(C)(C)C)CC4)c(C(=O)O)cn3n2)cc1	-1.0	8.0	13.4%	-8.9%	6.2	?	2.4%
CC1(C)C(CSc2nc3ccccc3[nH]2)C1(Cl)Cl (stereo not given)	8.7	2.2	?	0.1%	-2.9	.	11.1%
COc1ccccc1NC(=O)COc1ccc(/C=N/NC(=O)c2cccnc2)cc1	0.0	.	15.2%	-8.9%	15.2	0.0%	10.6%
O=C(Cn1cccn1)N1CCCC(N2CCN(c3ccccc3F)CC2)C1 (stereo not given)	9.3	-0.5	-7.8%[15.4 µM]	8.0%	4.8	.	2.6%
CC(=O)Nc1cccc(NC(=O)COc2nncc3ccccc23)c1	-3.4	9.0	5.4%	0.4%	-5.5	-1.5%	0.6%
O=S(=O)(NCCN1CCOCC1)c1ccc(Cl)s1	3.0	-6.3	?	1.0%	-9.4	.	12.1%
CCNc1nc(NCC)n2c(SCC(=O)Nc3ccc(Br)cc3F)nnc2n1	-4.1	.	-4.2%[15.4 µM]	-16.6%	9.7	-3.3%	.
COC(=O)c1ccc(C2NC(=S)N(c3ccccc3)C(C)=C2C(=O)Nc2ccccc2OC)cc1 (stereo not given)	-19.2	4.9	12.2%	-12.6%	19.7	-2.5%	7.4%
O=C(CCC1CCCN(C(=O)C2CCCC2)C1)NCc1ccc(F)c(F)c1 (stereo not given)	1.9	2.6	?	-2.8%	-5.5	.	6.3%
N#CCSc1nnc2ccc3ccccc3n12	?	10.0	?	-7.0%[15.4 µM]	-3.0	-4.2%	5.8%
S=C(c1cn(CCOc2ccccc2)c2ccccc12)N1CCCC1	-21.0	1.9	?	?	?	1.1%	?
COc1ccc(N2C(=O)CC(c3ccc([N+](=O)[O-])cc3)C2=O)cc1 (stereo not given)	.	0.0	9.1%	6.2%	3.3	-4.3%	15.7%
O=C(NC12CC3CC(CC(C3)C1)C2)c1ccc(-c2ccc(Br)cc2)o1	-10.3	4.7	?	-8.7%	5.1	31.6µM*	-20.5%
CCCS(=O)(=O)c1nc(S(=O)(=O)c2ccc(C)cc2)c(N2CCC(C)CC2)s1	3.4	.	23.3%	-9.1%	-10.4	-0.3%	13.6%
Cc1ccc(-c2nnn(CC(=O)N(CCO)C(C(=O)NC(C)(C)C)c3ccncc3)n2)cc1 (stereo not given)	-3.0	2.9	-29.8%	-5.8%	2.3	-5.1%	6.4%
Cc1ccc(S(=O)(=O)N(C)C)cc1NC(=O)COC(=O)CCC1CCCCC1	4.0	.	-8.9%[15.4 µM]	-1.0%	-3.4	.	.
CCOC(=O)c1c(N/N=C/c2ccncc2)n[nH]c1C	-9.8	0.0	2.2%[15.4 µM]	-18.5%	-7.0	.	0.4%
O=C(N/N=C/c1cc([N+](=O)[O-])ccc1N1CCNCC1)c1ccc([N+](=O)[O-])cc1	6.8	2.2	-64.3%[inhibitor]	14.3%	.	1.4%	6.5%
Cc1ccc(CNC(=O)C2CCN(S(=O)(=O)c3c(C)noc3C)CC2)cc1	5.6	3.6	-18.6%	18.1%	-19.3	-1.6%	11.9%
CC(C)CC(=O)Nc1ccc2c(c1)nc(CCN1CCOCC1)n2C	.	7.1	-39.6%[inhibitor]	2.7%	20.2	-2.3%	12.1%
COc1cc(/C=N/S(=O)(=O)c2ccccc2)cc(OC)c1O	.	-0.9	-31.8%[inhibitor]	10.5%	8.4	-2.1%	11.4%
COCCn1c(N)c(C(=O)NCC2CCCO2)c2nc3ccccc3nc21 (stereo not given)	4.4	0.8	?	-0.7%	-16.1	?	-5.2%
CCCOc1ccc(-c2cc(C(=O)NCC3CCCO3)c3ccccc3n2)cc1 (stereo not given)	3.2	-5.7	12.2%[15.4 µM]	-6.6%	-17.0	.	-9.8%
N#CC(C#N)=c1ccc2c(c1)N1C3=C(CCCC3)CC3CCCCC31N=2 (stereo not given)	-5.8	?	-6.1%	6.3%	-6.2	-9.8%	23.1%
O=C(NCC1CCN(Cc2ccc(Cl)cc2)CC1)C1CCCN(c2ncnc3c2nc2n3CCCCC2)C1 (stereo not given)	.	.	14.6%	-0.4%	10.1	-1.3%	10.1%
COCCCNC(=O)/C(C#N)=C/c1c(N2CCN(c3ccccc3)CC2)nc2c(C)cccn2c1=O	.	-9.6	25.8%	-14.3%	-22.1	4.0%	-12.0%
CCOC(=O)c1cccc(N2C(=O)C3C4C=CC(CC4)C3C2=O)c1 (stereo not given)	-4.2	2.5	4.5%	-10.6%	-10.3	.	4.3%
COc1ccc(-c2nc(CSCC(=O)NCCCN3CCCC3=O)c(C)o2)cc1OC	4.5	-0.8	-19.9%	5.5%	21.4	3.6%	27.1%
CN1CCN(c2ccc(S(=O)(=O)N3CCCCC3)cc2NC(=O)/C=C/c2ccc(OC(F)F)cc2)CC1	-4.5	.	-30.3%[inhibitor]	-4.4%	-3.3	-7.5%	.
COc1ccc(C(=O)Oc2ccc(=O)n(-c3ccccc3)n2)cc1	16.3	1.8	27.4%	1.0%	.	0.2%	13.3%
CCCCCCNc1c([N+](=O)[O-])c(=O)sc2ccccc12	14.2	-3.3	-2.2%[15.4 µM]	-0.4%	-2.0	-0.4%	-8.8%
Cc1nn(-c2ccccc2)c(Cl)c1C(=O)NCCCCNC(=O)c1c(C)nn(-c2ccccc2)c1Cl	-6.3	-0.7	13.8%	-3.9%	5.1	-1.6%	9.6%
COc1ccc(CNC(=O)CCC(=O)N2CCN(S(=O)(=O)c3cc([N+](=O)[O-])ccc3C)CC2)cc1	3.8	.	-44.8%	-20.8%	-17.9	-1.2%	.
Cc1c(NC(=O)CN2CCC(C(N)=O)CC2)cccc1[N+](=O)[O-]	.	-2.2	-3.7%	14.4%	3.5	-0.3%	18.6%
O=C(Nc1ccc(S(=O)(=O)Nc2cnc3ccccc3n2)cc1)c1ccc(F)cc1	0.0	.	0.4%[15.4 µM]	-10.4%	.	.	.
O=C(Nc1nnc(C2=COCCO2)o1)c1ccc(Cl)cc1	-16.7	3.2	2.3%	0.6%	3.6	0.3%	30.3%[activator]
COCCNC(=O)c1onc(CSc2ccc(C)c(C)c2)c1C(=O)O	6.1	7.4	-22.7%	0.3%	6.8	1.0%	11.9%
COc1ccc(/C=N/S(=O)(=O)CCc2ccccc2)c(OC)c1	21.4	6.0	-10.4%[15.4 µM]	12.7%	-10.9	-4.8%	6.7%
Cc1cc(C)c(NC(=O)CN2C(=O)NC(CCc3ccccc3)C2=O)c(C)c1 (stereo not given)	8.4	-5.2	4.7%[15.4 µM]	-6.9%	2.9	-0.7%	7.7%
COCC1CCN(C(=O)C2CCN(c3nc(-c4ccccc4)nc4c3CCC4)CC2)C1 (stereo not given)	-7.4	-6.3	-10.5%	-12.0%	-8.2	-7.2%	0.8%
O=C(NCc1ccc(Cl)cc1)c1ccc(CS(=O)Cc2cccc(Cl)c2)o1 (stereo not given)	1.5	.	21.6%	-8.5%	-3.8	0.8%	11.2%
CC(C)(C)c1ccc(C(=O)Nc2ccc(NC(=O)c3ccco3)cc2)cc1	-1.5	3.4	1.6%	7.6%	-15.5	?	24.4%

Next section
mol	CtBP-E1A inh	Menin MLL FP FL	gsp ag	gsp antagonist	TRPV1 PAM	ClpP mod	Sfp inh
Cc1nc(C)c(C(=O)NNS(=O)(=O)c2ccc([N+](=O)[O-])cc2)s1	6.9	1.2	-13.9%[15.4 µM]	-11.7%	8.2	.	-5.3%
O=C1C(=O)N(CCc2c[nH]c3ccccc23)C(c2cccnc2)/C1=C(/O)c1ccccc1 (stereo not given)	.	3.4	.	.	4.3	.	23.8%
O=C(N/N=C/C(Br)=C/c1ccccc1)c1cccs1	?	-0.8	-20.0%	-10.1%	-8.7	.	56.2µM*
O=C(O)C1=C[C@H](c2ccc(F)cc2)C[C@H](OCCCCO)O1	19.5	5.5	23.8%	9.6%	19.0	-2.9%	5.1%
CCOC(=O)C1=C(CN2CCCCCC2)NC(=O)NC1c1ccc2c(c1)OCO2 (stereo not given)	0.9	-1.6	-24.7%[15.4 µM]	0.0%	2.8	.	15.5%

Assay outcomes from PubChem.
